Shh pathway inh = blocks Sonic Hedgehog signaling; inhibition, % (test concentration not listed); Shh-LIGHT2 Gli-luciferase reporter, 30 h; actives 2.1% (n = 22,000);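 active = replicate mean of 65% or more; inconclusive = mean lower but half the replicates past it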;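 also: pathway switched on by Shh-conditioned medium diluted 1 in 25 in low serum; 100 nL library stock added to about 40 µL; 0% = median of neutral wells and 100% = positive control level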
PD-1 reverse act = reversal of PD-1 mediated T-cell inhibition; primary human CD4 T cells, PD-L1 beads, CellTiter-Glo 96 h; activation, % (concentration not given with the values); 29,000 tested, under 10 active;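 active = replicate mean of 50% or more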;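 also: 0% = median vehicle wells and 100% = positive control; 100 nL library stock added to about 50 µL; numbers are from one replicate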
MITF inhib = blocks MITF activity. TRPM1 promoter luciferase, luminescence, 24 h. inhibition, % (concentration not given with the values). actives 0.28% (n = 37,000). AID 2240;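 active = most replicates at 85% or more, or half of them and the mean; inconclusive = half reach 85% but not the mean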;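 also: human melanocyte line stably carrying TRPM1 promoter luciferase reporter; 0% = vehicle wells and 100% = a positive control; the first replicate is given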
YB-1 expression = YB-1 expression inhibition. U2OS, qRT-PCR YB-1 vs CDIP delta delta Cp, 16 h; stronger effect = higher value; zero = DMSO, each unit about twofold. delta delta Cp (YB-1 minus CDIP) (test concentration not listed). actives 0.37% (n = 30,000);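 active = delta delta Cp rounded down to an integer at or above 3, about 3 SD of DMSO wells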;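 also: higher means less YB-1 transcript or more CDIP transcript relative to DMSO; stock transfer was 100 nL into about 100 µL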
* marks the source's active call; other numbers are inactive results; ? = inconclusive; · = not tested or not shown. A portion of the library; count on the stated rates, not on these rows.

SMILES | Shh pathway inh | PD-1 reverse act | MITF inhib | YB-1 expression
Cc1ccc(N=Cc2cc3ccccc3nc2Cl)cc1Cl | 89* | -4.0 | 16 | 0.14
C[C@@H]1CN([C@@H](C)CO)C(=O)c2cccc(NS(=O)(=O)c3cccs3)c2O[C@@H]1CN(C)S(=O)(=O)c1ccc(Cl)cc1 | -4 | · | 12 | -0.51
C[C@H]1CN([C@@H](C)CO)C(=O)Cc2cc(NC(=O)Nc3ccc(F)cc3)ccc2O[C@H]1CN(C)Cc1ccc(C(F)(F)F)cc1 | -23 | 0.1 | -14 | 0.33
Cc1nc(SCC(=O)O)[nH]c(=O)c1Oc1ccccc1 | · | 2.9 | -13 | ·
C[C@@H]1CN([C@@H](C)CO)C(=O)c2cccc(NC(=O)C3CCOCC3)c2O[C@@H]1CN(C)CC1CCCCC1 | -25 | 0.4 | -1 | -0.36
CCc1cccc(C)c1NC(=O)CN(C)S(=O)(=O)c1ccc(Br)cc1 | · | 0.2 | 41 | ·
CC/C=C\C/C=C\C/C=C\CCCCCCCCCCCC(=O)O | -12 | 4.3 | -17 | -0.05
C[C@H](CO)N1C[C@H](C)[C@H](CN(C)S(=O)(=O)c2ccccc2)Oc2c(NC(=O)Nc3ccc(F)cc3)cccc2C1=O | 71* | · | 9 | -0.59
C[C@@H]1CN([C@@H](C)CO)C(=O)c2cc(NS(=O)(=O)c3cn(C)cn3)ccc2O[C@@H]1CN(C)S(=O)(=O)c1ccccc1 | -13 | 1.8 | -11 | 0.14
C[C@@H]1CN([C@@H](C)CO)C(=O)c2cccc(NC(=O)Nc3ccc(F)cc3)c2O[C@H]1CN(C)C | 16 | 0.0 | -9 | 0.14
C[C@H]1CN([C@@H](C)CO)C(=O)Cc2cc(NC(=O)CCCCCC(=O)Nc3ccccc3N)ccc2O[C@@H]1CN(C)Cc1ccc(C(F)(F)F)cc1 | · | 1.0 | 15 | -0.77
C[C@@H]1CN([C@@H](C)CO)C(=O)Cc2cc(NS(=O)(=O)c3cccs3)ccc2O[C@@H]1CN(C)Cc1ccc(C(=O)Nc2ccccc2N)cc1 | · | -0.2 | 17 | -0.15

Reprinted from the part before: six entries, followed by the next part.
SMILES | Shh pathway inh | PD-1 reverse act | MITF inhib | YB-1 expression
CC/C=C\C/C=C\C/C=C\CCCCCCCCCCCC(=O)O | -12 | 4.3 | -17 | -0.05
C[C@H](CO)N1C[C@H](C)[C@H](CN(C)S(=O)(=O)c2ccccc2)Oc2c(NC(=O)Nc3ccc(F)cc3)cccc2C1=O | 71* | · | 9 | -0.59
C[C@@H]1CN([C@@H](C)CO)C(=O)c2cc(NS(=O)(=O)c3cn(C)cn3)ccc2O[C@@H]1CN(C)S(=O)(=O)c1ccccc1 | -13 | 1.8 | -11 | 0.14
C[C@@H]1CN([C@@H](C)CO)C(=O)c2cccc(NC(=O)Nc3ccc(F)cc3)c2O[C@H]1CN(C)C | 16 | 0.0 | -9 | 0.14
C[C@H]1CN([C@@H](C)CO)C(=O)Cc2cc(NC(=O)CCCCCC(=O)Nc3ccccc3N)ccc2O[C@@H]1CN(C)Cc1ccc(C(F)(F)F)cc1 | · | 1.0 | 15 | -0.77
C[C@@H]1CN([C@@H](C)CO)C(=O)Cc2cc(NS(=O)(=O)c3cccs3)ccc2O[C@@H]1CN(C)Cc1ccc(C(=O)Nc2ccccc2N)cc1 | · | -0.2 | 17 | -0.15
C[C@H](CO)N1C[C@H](C)[C@H](CN(C)S(=O)(=O)c2ccc(F)cc2)Oc2ccc(NC(=O)Nc3cccc4ccccc34)cc2CC1=O | 29 | -0.4 | 31 | 0.03
Cc1noc(C)c1NC(=O)N(C)C[C@H]1Oc2ccc(NC(=O)Cn3cnnn3)cc2CC(=O)N([C@H](C)CO)C[C@H]1C | ? | · | -6 | 0.18
COc1ccc(S(=O)(=O)Nc2ccc3c(c2)C(=O)N([C@@H](C)CO)C[C@H](C)[C@H](CN(C)C(=O)Nc2ccc(C(F)(F)F)cc2)O3)cc1 | · | 2.5 | 5 | 0.65
Cc1cc(C(=O)Nc2cccc3c2O[C@@H](CN(C)Cc2ccc(Oc4ccccc4)cc2)[C@H](C)CN([C@H](C)CO)C3=O)n(C)n1 | 69* | -2.7 | 42 | -0.21
C[C@@H]1CN([C@H](C)CO)C(=O)c2cccc(NC(=O)c3nc4ccccc4s3)c2O[C@@H]1CN(C)Cc1ccc(-c2ccccc2)cc1 | 14 | -3.1 | 6 | -0.11
Cc1cc(C)c(C#N)c(SCCS(=O)(=O)c2nc3ccccc3s2)n1 | · | -13 | 38 | ·
COc1ccc(S(=O)(=O)Nc2ccc3c(c2)C(=O)N([C@H](C)CO)C[C@H](C)[C@@H](CN(C)S(=O)(=O)c2ccc(OC)cc2)O3)cc1 | 10 | -0.3 | -6 | 0.3
CCOC(=O)c1ccc(N=Cc2ccc(Cl)cc2)cc1 | -33 | -13 | -4 | -0.2
C[C@@H]1CN([C@@H](C)CO)C(=O)c2cccc(NC(=O)c3ccc(-c4nccs4)cc3)c2O[C@@H]1CN(C)Cc1ccc(-c2ccccc2)cc1 | 32 | -4.9 | -5 | -0.13
O=C(O)CCCNS(=O)(=O)c1ccc(Br)s1 | · | 3.1 | 1 | ·
CNC[C@H]1Oc2c(NC(=O)NC(C)C)cccc2C(=O)N([C@H](C)CO)C[C@@H]1C | 24 | -4.0 | -1 | -0.3
Cc1ccc(S(=O)(=O)Nc2cccc3c2O[C@@H](CN(C)CC2CC2)[C@@H](C)CN([C@H](C)CO)C3=O)cc1 | -15 | -0.3 | 4 | -0.15
C[C@@H]1CN([C@H](C)CO)C(=O)c2cccc(NC(=O)Nc3ccc(C(F)(F)F)cc3)c2O[C@H]1CN(C)C(=O)Nc1ccccc1 | -14 | -2.5 | 12 | -0.018
C[C@@H]1CN([C@H](C)CO)C(=O)c2cccc(NS(=O)(=O)c3ccccc3)c2O[C@@H]1CN(C)Cc1ccc(C(=O)O)cc1 | 5 | · | -20 | 0.017
C[C@H]1CN([C@@H](C)CO)C(=O)c2cccc(NC(=O)Nc3ccc4c(c3)OCO4)c2O[C@@H]1CN(C)CC1CC1 | -12 | · | -40 | 0.1
C[C@H](CO)N1C[C@H](C)[C@H](CN(C)C(=O)Nc2ccc(F)cc2)Oc2ccc(NS(C)(=O)=O)cc2CC1=O | -3 | · | -8 | -0.023
COc1ccc(S(=O)(=O)Nc2ccc3c(c2)C(=O)N([C@H](C)CO)C[C@H](C)[C@@H](CN(C)C)O3)cc1 | -6 | 0.8 | -7 | -0.24
COc1ccc(S(=O)(=O)N(C)C[C@H]2Oc3ccc(NC(=O)NC4CCCCC4)cc3C(=O)N([C@@H](C)CO)C[C@H]2C)cc1 | -26 | -2.1 | -14 | 0.086
C[C@@H]1CN([C@@H](C)CO)C(=O)c2cccc(NC(=O)C3CCCCC3)c2O[C@H]1CN(C)C(=O)Nc1ccc(C(F)(F)F)cc1 | -2 | · | 0 | -0.45
COc1ccc(NC(=O)N(C)C[C@H]2Oc3ccc(NS(=O)(=O)c4ccc(C)cc4)cc3C(=O)N([C@H](C)CO)C[C@@H]2C)cc1 | -11 | 1.0 | -3 | -0.0035
C[C@]12CC[C@H](O)CC1=CCC1C2CC[C@@]2(C)C1CC[C@@H]2C(=O)CO (stereo partly specified) | 24 | 2.2 | 9 | 0.11
C[C@@H]1CCCCO[C@@H](CN(C)C(=O)NC2CCCCC2)[C@@H](C)CN([C@H](C)CO)C(=O)c2cc(NC(=O)CCCCCC(=O)Nc3ccccc3N)ccc2O1 | · | 0.7 | 0 | -0.1
O=C(CC1NCCNC1=O)Nc1ccc(Cl)cc1 (stereo unspecified) | · | 2.0 | -18 | ·
COC(=O)[C@@]1(C)CC[C@]2(C(=O)O[C@@H]3O[C@H](CO)[C@@H](O)[C@H](O)[C@H]3O)CC[C@]3(C)C(=CCC4[C@@]5(C)C[C@H](O)[C@H](O[C@@H]6OC[C@@H](O)[C@H](O)[C@H]6O)[C@@](C)(CO)C5CC[C@]43C)[C@@H]2C1 (stereo partly specified) | -19 | 2.2 | 6 | 0.024
C[C@@H]1CN([C@H](C)CO)C(=O)Cc2cc(NC(=O)C3CC3)ccc2O[C@@H]1CN(C)S(C)(=O)=O | -9 | 1.8 | -4 | 0.19
CCCC1CCC(c2ccc(OC(=O)c3cccnc3)cc2)CC1 (stereo unspecified) | · | 0.1 | -9 | -0.5
CCSC1=N/C(=C\c2ccc(C)s2)C(=O)S1 | 4 | 4.0 | -6 | -0.64
CCOc1ccc2nc(SCC(=O)Nc3ccc(C)cc3C)[nH]c2c1 | · | -1.8 | 22 | ·
C[C@@H]1CN([C@@H](C)CO)C(=O)c2cc(NC(=O)CCCCCC(=O)Nc3ccccc3N)ccc2O[C@@H]1CN(C)C(=O)Nc1ccccc1 | · | -0.3 | -11 | 0.24
C[C@@H]1CN([C@H](C)CO)C(=O)c2cc(NS(=O)(=O)c3cccs3)ccc2O[C@H]1CN(C)CC1CC1 | · | · | 2 | 0.021
C[C@@H]1CN([C@H](C)CO)C(=O)Cc2cc(NS(C)(=O)=O)ccc2O[C@H]1CN(C)S(=O)(=O)c1cccs1 | 30 | 0.3 | -5 | 0.21
Cc1cc(Cl)ccc1NC(=O)CCCN1C(=O)c2ccccc2C1=O | · | -0.3 | 2 | ·
CC(C)NC(=O)N(C)C[C@@H]1Oc2c(NS(=O)(=O)c3ccccc3)cccc2C(=O)N([C@H](C)CO)C[C@@H]1C | 12 | 2.3 | -4 | -0.34
C[C@@H]1CCCCO[C@@H](CN(C)C(=O)Nc2ccccc2)[C@@H](C)CN([C@H](C)CO)C(=O)c2cc(NC(=O)CCCCCC(=O)Nc3ccccc3N)ccc2O1 | · | 0.5 | 0 | -0.096
O=C(Nc1sc2c(c1C(=O)NCC1CCCO1)CCCC2)c1ccc(Cl)cc1Cl (stereo unspecified) | · | 0.0 | -24 | ·
C[C@@H]1CN([C@H](C)CO)C(=O)c2cccc(NS(=O)(=O)c3ccc(Cl)cc3)c2O[C@H]1CN(C)C | -12 | · | 1 | -0.8
C[C@H]1CN([C@@H](C)CO)C(=O)c2cc(NS(=O)(=O)c3ccc(F)cc3)ccc2O[C@H]1CN(C)Cc1ccc(C(=O)Nc2ccccc2N)cc1 | · | -0.4 | -10 | -0.23
CC(C)NC(=O)N(C)C[C@H]1Oc2c(NC(=O)Nc3ccc(F)cc3)cccc2C(=O)N([C@H](C)CO)C[C@H]1C | -7 | -0.8 | -2 | -0.14
C[C@@H]1CN([C@@H](C)CO)C(=O)Cc2cc(NC(=O)C3CC3)ccc2O[C@@H]1CN(C)S(C)(=O)=O | -31 | -0.7 | -17 | 0.012
C[C@@H]1CCCCO[C@@H](CN(C)C(=O)Cc2ccccc2)[C@@H](C)CN([C@H](C)CO)C(=O)c2cc(N(C)C)ccc2O1 | · | · | 6 | -0.77
C[C@@H]1CN([C@@H](C)CO)C(=O)c2cc(NS(=O)(=O)c3ccc(Cl)cc3)ccc2O[C@H]1CN(C)Cc1ccc(C(=O)O)cc1 | · | 0.3 | 2 | -0.02
C[C@H]1CN([C@@H](C)CO)C(=O)c2cccc(NC(=O)NC3CCCCC3)c2O[C@@H]1CN(C)C(=O)NC1CCCCC1 | -12 | -0.3 | -6 | -0.042
COc1ccc(NC(=O)CC(C(=O)O)N2CCOCC2)cc1 (stereo unspecified) | · | 1.5 | -9 | ·
COc1ccc(NC(=O)Nc2ccc3c(c2)C(=O)N([C@H](C)CO)C[C@H](C)[C@@H](CN(C)CC2CCCCC2)OCCCC[C@@H](C)O3)cc1 | 6 | -3.1 | -4 | -0.22
C[C@@H]1CN([C@@H](C)CO)C(=O)c2cccc(NC(=O)C3CCCCC3)c2O[C@H]1CN(C)CC1CC1 | 6 | · | 18 | -0.22
O=C(O)C1CC=CCC1C(=O)Nc1cccc(C(=O)N2CCCCC2)c1 (stereo unspecified) | · | 3.4 | -12 | ·
C[C@@H]1CCCCO[C@H](CN(C)C(=O)Nc2ccc(C(F)(F)F)cc2)[C@@H](C)CN([C@H](C)CO)C(=O)c2cc(N(C)C)ccc2O1 | 30 | -1.8 | -1 | 0.14
CCc1ccc(-n2c(C)nnc2SCC(=O)Nc2ccc(OC)cc2)cc1 | · | -0.2 | -2 | ·
O=S(=O)(NC1CCCCC1)c1cccc(-c2nnc(-c3ccccc3)o2)c1 | 32 | 0.0 | 7 | -0.39
O=c1[nH]c2ccccc2c2ccccc12 | 17 | 5.4 | -17 | -0.48
C[C@@H]1CN([C@H](C)CO)C(=O)c2cc(NC(=O)CCC(F)(F)F)ccc2O[C@H]1CN(C)S(=O)(=O)c1cccs1 | · | 2.0 | -11 | -0.11
COc1ccc(NC(=O)Nc2ccc3c(c2)C(=O)N([C@@H](C)CO)C[C@@H](C)[C@@H](CN(C)S(=O)(=O)c2ccc(F)cc2)O3)cc1 | 4 | 0.7 | 10 | 0.12
CCC(=O)Nc1sc2c(c1C(=O)N1CCCCC1)CCCCC2 | -20 | 1.4 | 10 | 0.51
C[C@H]1CN([C@@H](C)CO)C(=O)c2cc(NS(=O)(=O)c3cn(C)cn3)ccc2O[C@H]1CN(C)S(=O)(=O)c1cn(C)cn1 | · | 2.0 | 2 | 0.34

Screening data as filed in PubChem BioAssay.
